Assay outcomes from PubChem BioAssay.
STK33 kinase inh: inhibitors of purified STK33 kinase, primary screen, biochemical, ADP-Glo luminescence, homogeneous, cell-free; MBP phosphorylation; inhibition, % at 10 µM; hit rate 0.073% among 320,000; AID 2661, 2010;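 active = inhibition at or above 25%, using the most active replicate where run in duplicate; inactive = inhibition below 25%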
Target sequence (Q9BYT3 whole entry, looked up): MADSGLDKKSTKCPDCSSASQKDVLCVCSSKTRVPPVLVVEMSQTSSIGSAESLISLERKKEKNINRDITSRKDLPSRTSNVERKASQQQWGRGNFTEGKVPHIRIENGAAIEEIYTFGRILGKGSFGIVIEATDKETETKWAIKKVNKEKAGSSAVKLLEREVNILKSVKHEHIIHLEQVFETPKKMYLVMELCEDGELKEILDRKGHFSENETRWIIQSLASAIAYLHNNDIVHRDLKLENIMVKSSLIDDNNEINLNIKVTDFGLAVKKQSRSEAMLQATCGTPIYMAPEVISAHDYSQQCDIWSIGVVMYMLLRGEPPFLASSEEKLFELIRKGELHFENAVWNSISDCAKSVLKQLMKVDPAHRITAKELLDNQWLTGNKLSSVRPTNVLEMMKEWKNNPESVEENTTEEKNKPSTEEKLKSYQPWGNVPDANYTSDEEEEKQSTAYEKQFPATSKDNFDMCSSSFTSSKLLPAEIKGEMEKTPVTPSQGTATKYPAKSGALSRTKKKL
An asterisk follows results filed as active.

STK33 kinase inh | SMILES
1.2 | COc1ccccc1-n1c(CNC(=O)c2ccco2)n[nH]c1=S
-0.8 | Cc1cc(SCC(=O)N2CCCC2=O)nc2ccccc12
-0.5 | COC(=O)c1ccc(/C=N\NC(=O)CC(=O)NCCc2ccccc2)cc1
-0.9 | CC(/C=N/NC(=O)c1ccccc1F)=C\c1ccccc1
-0.8 | COc1ccc(-c2cc(C(=O)N3CC4(C)CC3CC(C)(C)C4)no2)cc1 (stereo not drawn)
-0.9 | C/C(=N\NS(=O)(=O)c1cccc([N+](=O)[O-])c1)c1cc2ccccc2o1
1.5 | CCNC(=S)N(CCO)Cc1cc2cc3c(cc2[nH]c1=O)OCO3
-1.0 | COCCNC(=O)c1onc(CSc2ccccc2)c1C(=O)NCCOC
-0.1 | Cc1ccccc1Oc1cccc(C(=O)/C(C#N)=C/N(C)C)c1
-0.9 | O=C(Nc1ccc(Cl)cc1)OCc1cn(-c2ccc(Cl)cc2)nn1
-0.8 | Cc1ccc(C(=O)NCc2ccc3c(c2)OCO3)cc1Cl
-2.8 | Cc1ccc(-n2nnnc2SCC(=O)c2cc(C)n(-c3cc(C)on3)c2C)cc1
-3.9 | O=C1N[C@@H](Cc2cnc[nH]2)C(=O)N2CCC[C@@H]12
0.0 | NCC1CCC(C(=O)Oc2ccc(CCC(=O)O)cc2)CC1 (stereo not drawn)
-0.3 | CCCCn1c(SCC(=O)N2CCC(C)CC2)nc2ccsc2c1=O
-2.1 | Cc1cc(C)cc(-n2nnnc2SCC(=O)N2CCOCC2)c1
0.2 | CCc1cc(C(=O)c2ccc(Br)cc2)c(NC(=O)CN(CC)CC)s1
-1.1 | CN(C(=O)COC(=O)c1ccc(=O)n(Cc2ccccc2)n1)C1CCCCC1
-0.8 | CC(C)NC(=O)C1CCN(C(=O)c2cc3sccc3n2Cc2ccc(F)cc2)CC1
-8.6 | O=C(NC1CCCCC1)C(c1ccc(F)cc1)N(Cc1ccc2c(c1)OCO2)C(=O)c1cnsn1 (stereo not drawn)
-0.6 | Cc1ccc(S(=O)(=O)N2CCOCC2)cc1NC(=O)CNC(C)c1ccccc1 (stereo not drawn)
0.9 | COC(=O)[C@@]12CCCN1[C@H](c1ccc(-c3ccc(F)cc3)c(OC)c1)[C@H]1C(=O)N(C)C(=O)[C@H]12
-0.3 | Cc1ccc(NC2=NC(c3ccc(F)cc3)n3c(nc(C)cc3=O)N2)c(C)c1 (stereo not drawn)
-0.9 | O=C(O)C1CCCCC1C(=O)NCCc1c[nH]c2ccccc12 (stereo not drawn)
-1.2 | CCOC(=O)c1c(O)c2ccccc2n(C)c1=O
-1.1 | CCn1c(CC(=O)Nc2ccccc2C)nnc1SCC(=O)NC1=NCCS1
0.6 | CCC(=O)c1ccc(OCC(=O)OCC(=O)N2CCc3ccccc32)cc1
0.1 | Cc1ccc(NC(=O)Cc2c(C(=O)O)n(C)c3ccccc23)cc1F
4.5 | CN1CCN(C(=O)/C(=C/c2cccnc2)NC(=O)c2cccc(Br)c2)CC1
-2.7 | CCOC(=O)c1ccccc1NC(=O)c1ccc2nccnc2c1
0.3 | Cc1ccc(S(=O)(=O)c2cc(C)cc(S(=O)(=O)Nc3ccc(C(=O)O)cc3)c2C)cc1
-0.2 | CCOC(=O)CSc1nnc(Cn2nnc(-c3ccccc3)n2)n1CC
0.4 | COc1nccnc1NS(=O)(=O)c1ccc(NC(=S)NC(=O)/C=C/c2ccccc2)cc1
-2.4 | C/C(=N/OC(=O)c1cccc(C(F)(F)F)c1)c1cnccn1
-0.2 | Cc1ccc2oc(=O)c3cc(C(=O)N4CCN(C)CC4)sc3c2c1
0.9 | CCN(C(=O)Cn1nc(C(=O)O)c2ccccc2c1=O)C1CCCCC1
-0.8 | CC(C)C[C@H](NC(=O)c1nc[nH]c1C(=O)N1CCc2ccccc2C1)C(=O)OC(C)(C)C
0.5 | O=C(NCCc1ccncc1)Nc1ccccc1Cl
-0.5 | Cc1cccc(CSCc2ccc(C(=O)NC3CCCC3)o2)c1
3.8 | COc1ccccc1NC(=O)CSc1nnc(COc2ccccc2OC)n1C

A section from the list above, as a working copy:
STK33 kinase inh | SMILES
0.3 | Cc1ccc(S(=O)(=O)c2cc(C)cc(S(=O)(=O)Nc3ccc(C(=O)O)cc3)c2C)cc1
-0.2 | CCOC(=O)CSc1nnc(Cn2nnc(-c3ccccc3)n2)n1CC
0.4 | COc1nccnc1NS(=O)(=O)c1ccc(NC(=S)NC(=O)/C=C/c2ccccc2)cc1
-2.4 | C/C(=N/OC(=O)c1cccc(C(F)(F)F)c1)c1cnccn1
-0.2 | Cc1ccc2oc(=O)c3cc(C(=O)N4CCN(C)CC4)sc3c2c1
0.9 | CCN(C(=O)Cn1nc(C(=O)O)c2ccccc2c1=O)C1CCCCC1
-0.8 | CC(C)C[C@H](NC(=O)c1nc[nH]c1C(=O)N1CCc2ccccc2C1)C(=O)OC(C)(C)C

New compounds follow
STK33 kinase inh | SMILES
-1.0 | Cc1ccc(S(=O)(=O)NC(C(=O)N2CCOCCOCCOCC2)c2ccccc2)cc1 (stereo not drawn)
-1.4 | N/C(=N\OC(=O)CSc1ccccc1)c1ccncc1
-1.1 | CCC1CCCCN1CCNC(=O)C1CCN(S(=O)(=O)c2cccc3nsnc23)CC1 (stereo not drawn)
-2.4 | COC(=O)c1cc(Br)ccc1-c1ccc(/C=N/n2nnnc2N)o1
-1.3 | CCCCN(C)C(=S)Nc1ccc(Oc2ccccc2)cc1
-0.7 | O=C(Cc1ccccc1)Nc1nc(-c2cccs2)cs1
-0.9 | CCN=C1SC(C(=O)NCCc2ccccc2)CC(=O)N1CC (stereo not drawn)
-1.9 | CCOCCCN(CCC#N)C(=O)C1CCN(S(=O)(=O)c2ccc(-n3cnnn3)cc2)CC1
-0.9 | CCc1noc(C)c1C(=O)Nc1ccc(C(F)(F)F)cc1
0.1 | CCn1c(SCC(=O)Nc2cccc(F)c2)nc2c(c1=O)SC(C)C2 (stereo not drawn)
-1.4 | Cc1ccc(C(=O)N2CCC(n3nccc3NC(=O)c3ccccc3C)CC2)cn1
0.9 | CC(=O)Nc1ccc(S(=O)(=O)NC(C)C(=O)OCCOc2ccc(F)cc2)cc1 (stereo not drawn)
-1.5 | COc1cc(NC(=O)c2cc(CC(C)C)on2)c(OC)cc1Cl
0.9 | COc1ccc(NC(=S)N2CCC(c3nc4ccccc4[nH]3)CC2)c(OC)c1
-1.7 | COc1ccc(-c2csc3ncnc(N4CCN(c5cccc(OC)c5)CC4)c23)cc1
1.2 | CCOc1ccc(Oc2nc(NCC(C)C)nc(OC)n2)nn1
0.2 | Cc1ccc(C(O)c2ccncc2)cc1 (stereo not drawn)
-3.3 | CC1(C)CC(=O)C2=C(C1)N(Cc1ccco1)C(=O)C2(NC(=O)C1CCCCC1)C(F)(F)F (stereo not drawn)
-0.6 | Cc1ccc(-n2c(-c3ccncc3)n[nH]c2=S)cc1C
-0.9 | CCOC(=O)c1sc(NC(=O)CSc2nc(-c3ccco3)cc(C(F)(F)F)n2)c(C(=O)OC)c1C

In the list so far, five have a COOH group.
STK33 kinase inh | SMILES
0.0 | NCC1CCC(C(=O)Oc2ccc(CCC(=O)O)cc2)CC1 (stereo not drawn)
-0.9 | O=C(O)C1CCCCC1C(=O)NCCc1c[nH]c2ccccc12 (stereo not drawn)
0.1 | Cc1ccc(NC(=O)Cc2c(C(=O)O)n(C)c3ccccc23)cc1F
0.3 | Cc1ccc(S(=O)(=O)c2cc(C)cc(S(=O)(=O)Nc3ccc(C(=O)O)cc3)c2C)cc1
0.9 | CCN(C(=O)Cn1nc(C(=O)O)c2ccccc2c1=O)C1CCCCC1

Remaining list, next part
STK33 kinase inh | SMILES
3.8 | CCNc1cccc2c1C(=O)N(C)C2=O
0.9 | O=C(Nc1ccnn1C1CCN(Cc2ccccc2)CC1)c1ccccc1Cl
-0.6 | O=C(COC(=O)c1c[nH]c(=O)[nH]c1=O)Nc1cccc([N+](=O)[O-])c1
-0.9 | COc1ccc(-c2oc(NC(=O)CCl)c(C#N)c2-c2ccc(OC)cc2)cc1
-1.5 | O=C(CN1CCN(CC(=O)Nc2ccc(OCc3ccccc3)cc2)CC1)Nc1ccc(F)cc1
-0.4 | COc1ccc(NC(=O)C2CCN(C(=O)C3CC(=O)N(c4ccc(C)cc4)C3)CC2)c(OC)c1 (stereo not drawn)
-0.1 | Cc1cc(NC(=O)C2CCC2)n(-c2ccccn2)n1
-1.5 | COc1ccc(NC(=O)C2CC(=O)n3c(nc4ccccc43)N2)cc1 (stereo not drawn)
-1.0 | COc1ccc(N=CC2=C(O)CC(C)(C)CC2=O)cc1OC
-0.5 | Cc1ccc(CN(C)C(=O)c2cccc(S(=O)(=O)N3CCc4ccccc43)c2)cc1
0.8 | COC(=O)c1sc(-c2cccs2)cc1N
-0.4 | NC(=O)CNc1n[nH]c(=S)[nH]c1=O
0.3 | Fc1ccc(-c2nnc3n2CCCCC3)cc1
-1.3 | COc1cc(SC)ccc1C(=O)Nc1c(C)cccc1C
0.2 | CCC(=O)Nc1cccc(NC(=O)c2ccc3c(c2)OCCO3)c1
-0.1 | COc1ccc(CNC(=O)OCCN2CCN(Cc3ccccc3)CCC2=O)cc1
-1.6 | O=c1cc(-c2ccc(Cl)cc2)[nH]c2ccccc12
-2.7 | COC(C/C=C/[C@@H](O)COCc1ccccc1)OC
-1.3 | O=C(CCc1c[nH]c2ccccc12)OCc1cccc(C(F)(F)F)c1
-1.1 | NS(=O)(=O)c1ccc(CCNC(=O)Cc2ccc(S(=O)(=O)N3CCCC3)s2)cc1
0.9 | Cc1cccc(OCCCC(=O)Nc2nc3ccccc3[nH]2)c1
-0.3 | O=C(OCCN(CCOC(=O)c1ccncc1)S(=O)(=O)c1cccs1)c1ccncc1
0.4 | C1COCCNCCOCCOCCOCCN1
-0.4 | CC(C)C[C@H]1CN=C(Nc2ccccc2)N1CCC(C)c1ccccc1 (stereo partly drawn)
-1.8 | O=C(O)c1ccc(N/N=C/C2=C(N3CCOCC3)C(=C\c3ccccc3)/CC2)cc1
-0.1 | Cc1c(C2OC(=O)C3(CCCCC3)C(=O)C2(C)C)c(=O)n(-c2ccccc2)n1C (stereo not drawn)
-1.1 | O=C(CCN1C(=O)/C(=C\C=C\c2ccccc2)SC1=S)Nc1cccc(C(=O)O)c1
-1.0 | Nc1ccc(Oc2ccc(Cl)cc2)cc1
-1.2 | Cn1c(=O)c2c(nc(NCc3ccccc3)n2CC(N)=O)n(C)c1=O
-0.6 | CC(=O)N1CCOc2ccc(S(=O)(=O)NCCc3ccc(Cl)cc3)cc21
-2.1 | COc1ccc(Cl)cc1Nc1nc(C)nc2c1nnn2Cc1ccccc1
0.0 | CCC(c1nnnn1C1CCCC1)N1CCN(C(=O)c2ccco2)CC1 (stereo not drawn)
-1.0 | O=S(=O)(c1ccc(Cl)cc1)N1CN(CC2CCCO2)c2nc3ccccc3nc21 (stereo not drawn)
1.5 | COC(=O)c1sccc1NC(=O)C1CC1
-0.6 | C=CCOc1ccc(/C=N/NC(=O)C(=O)N2CCCCCC2)cc1OC
4.2 | O=C(Cn1c(=O)cnc2ccccc21)Nc1ccccc1N1CCOCC1
0.2 | COc1cc(NC(=O)c2cc([N+](=O)[O-])ccc2NC(=O)CN2CCN(c3ccccn3)CC2)cc(OC)c1
0.2 | COc1ccc(NC2CCCN(C(=O)c3ccc4nccnc4c3)C2)cc1OC (stereo not drawn)
-1.8 | CCOC(=O)c1ccc(Oc2c(C)oc3c(CN4CCN(C)CC4)c(O)ccc3c2=O)cc1
-0.7 | O=C(NCCc1ccccc1)C1CCN(C(=O)c2ccc([N+](=O)[O-])cc2)CC1
0.2 | COc1ccc(-c2cc(C(=O)Nc3cccnc3)no2)cc1OC
-0.8 | Nc1cc2c(cc1C(=O)c1ccccc1)OCCO2
0.2 | CN1CCN(C(=O)c2cnn(-c3ccccc3)c2NC(=O)c2ccccc2Br)CC1
-0.7 | Cc1cc(/C([O-])=C(/C(=S)Nc2ccc(F)cc2)[n+]2ccccc2)c(C)n1-c1ccc(F)cc1
0.7 | Cc1nnc(NC(=O)c2oc3c(ccc4ccccc43)c2C)s1
-2.0 | COc1ccc(/C=N\NC(=O)c2cc(OCC(F)(F)F)ccc2OCC(F)(F)F)cc1
-0.2 | O=C(NC1CCCC1)c1ccc(CN2CCOCC2)cc1
0.1 | COc1ccccc1NC(=O)CN1C(=O)COc2ccc(C)cc21
-1.4 | COCCCNc1nc2c(-c3cccc(C)c3)nnn2c2ccccc12
0.9 | O=C(c1ccccc1)c1ccc2nc(-c3ccco3)c(-c3ccco3)nc2c1
-1.1 | CCOC(=O)N1CCN(C(=O)c2cc3c(=O)n4ccccc4nc3s2)CC1
-1.3 | CCOc1ccccc1N1CCN(CC(O)COCc2cccs2)CC1 (stereo not drawn)
0.2 | COc1cccc(OC)c1OCCNCC1CSc2ccccc2O1 (stereo not drawn)
-0.4 | COc1ccccc1NC(=O)C1CCCN(c2cc(C)nc3ncnn23)C1 (stereo not drawn)
1.2 | CC(CCc1ccccc1)NC(=O)C1CCN(c2nnc(-n3cccc3)s2)CC1 (stereo not drawn)
0.2 | COc1cc(C)nc(N2CCC(C(=O)NC3CCCCC3)CC2)n1
-0.1 | O=C(NCCOC(=O)c1ccc(C(=O)OCCNC(=O)c2ccccc2)o1)c1ccccc1
0.1 | CCN1CCN(C(c2cc(OC)ccc2OC)c2nnnn2Cc2ccccc2)CC1 (stereo not drawn)
-2.1 | COc1ccc(-n2nc(C(=O)NCC(=O)N3CCCC3)c3ccccc3c2=O)cc1
-0.9 | CCOC(=O)c1cc(C#N)c(Oc2ccc(F)cc2)nc1-c1ccccc1

Next structures follow:
STK33 kinase inh | SMILES
0.7 | Cc1n[nH]c(C)c1S(=O)(=O)N1CCc2ccccc21
-1.2 | COc1ccc(N2CCN(C(=O)c3ccc(CS(=O)(=O)c4ccccc4C)o3)CC2)cc1
-2.1 | COC(=O)CSc1nnc2n1C(C)(C)Cc1ccccc1-2
-2.8 | CCc1c(O)nc(SCC(=O)Nc2ccccc2OC)n(-c2ccccc2C)c1=O
0.1 | COc1cccc(C(=O)NC(=S)Nc2ccc(Cl)cc2C(=O)O)c1
1.9 | CC1(C)Oc2ccc(C(=O)NN)cc2NC1=O
2.5 | Oc1ccc(C[C@@H]2CNCCN2CCc2cccc3ccccc23)cc1

Some of the compounds tested; most or all hits stand in other tables.
